Assay outcomes (PubChem)
Polio RdRp inh = poliovirus RNA polymerase inhibition. AID 588519. actives 0.66% (n = 150,000). % elongation, % (compound at 16.7 µg/mL). poliovirus polymerase elongation, fluorescence polarization; stronger effect = lower value. P03300; in the data active = % elongation below about 90%; note: some results filed as inactive read as strong as hits
Target sequence (P03300 1749-2209 limits assumed): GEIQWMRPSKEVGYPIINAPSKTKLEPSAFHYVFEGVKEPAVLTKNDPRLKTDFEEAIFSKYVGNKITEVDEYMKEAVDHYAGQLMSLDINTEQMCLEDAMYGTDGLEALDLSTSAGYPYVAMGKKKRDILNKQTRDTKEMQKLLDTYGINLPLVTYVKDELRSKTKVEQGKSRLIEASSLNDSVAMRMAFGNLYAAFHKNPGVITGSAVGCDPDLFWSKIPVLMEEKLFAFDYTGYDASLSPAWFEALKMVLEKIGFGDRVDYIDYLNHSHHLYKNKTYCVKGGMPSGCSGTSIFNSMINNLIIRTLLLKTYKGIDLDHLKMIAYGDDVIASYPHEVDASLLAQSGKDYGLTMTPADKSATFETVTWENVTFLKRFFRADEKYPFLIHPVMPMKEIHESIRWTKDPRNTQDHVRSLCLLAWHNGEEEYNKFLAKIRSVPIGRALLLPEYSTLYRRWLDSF
Polio RdRp inh intensity = further read-out of Polio RdRp inh, marked with its call; % elongation; measured here: total intensity read-out; formula for this scale not given here;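 total fluorescence in place of polarization; lower means less elongation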
Active calls of the source: *.

Preview:
Every second line gives: Polio RdRp inh intensity, Polio RdRp inh
Cc1c(C(=O)N2CCC(C(=O)Nc3ccc(F)cc3)CC2)sc2nc[nH]c(=O)c12
→ 113, 109
COc1ccc(C2c3c(-c4ccccc4O)n[nH]c3C(=O)N2CCc2ccccc2)cc1 (configuration not stated)
→ 111, 109
CCOc1ccc(NC(=O)C(CC)n2c(=O)c(-c3ccccc3NC(C)=O)nc3ccccc32)cc1 (configuration not stated)
→ 104, 101

The listing (from the top)
Every second line gives: Polio RdRp inh intensity, Polio RdRp inh
Cc1c(C(=O)N2CCC(C(=O)Nc3ccc(F)cc3)CC2)sc2nc[nH]c(=O)c12
→ 113, 109
COc1ccc(C2c3c(-c4ccccc4O)n[nH]c3C(=O)N2CCc2ccccc2)cc1 (configuration not stated)
→ 111, 109
CCOc1ccc(NC(=O)C(CC)n2c(=O)c(-c3ccccc3NC(C)=O)nc3ccccc32)cc1 (configuration not stated)
→ 104, 101
Fc1ccc(C(NCCc2ccc(Cl)cc2)c2nnc(-c3ccccc3Cl)o2)cc1 (configuration not stated)
→ 109, 105
COc1ccc(CNC(=O)Cn2ncn3nc(-c4cccs4)cc3c2=O)cc1
→ 108, 109
Cc1ccc(CNC(=O)c2c(-c3ccc(F)cc3F)noc2C)o1
→ 118, 114
CCOc1ccc(C2=CC(c3cc(Br)ccc3F)n3ncnc3N2)cc1Cl (configuration not stated)
→ 135, 107
Cc1cc(Cl)ccc1NC(=O)CN(c1ccccc1Br)S(C)(=O)=O
→ 112, 109
O=C(C1COc2cc(S(=O)(=O)Nc3ccc(Cl)cc3)ccc2O1)N1CCCC1 (configuration not stated)
→ 106, 106
COc1ccccc1Cn1c(CNS(=O)(=O)c2ccccc2Cl)nc2cccnc21
→ 123, 116
CCCN(C(=O)c1nn(-c2ccc(OC)cc2)c(=O)c2c1c1ccccc1n2C)c1ccc(CC)cc1
→ 106, 106
CCOc1ccc(-c2nnc(SCC(=O)N(CC)c3cccc(C)c3)o2)cc1
→ 106, 105
COc1ccc(C(=O)c2cnc3ccc(C)cc3c2S(=O)(=O)c2ccccc2)cc1
→ 107, 104
Cc1ccc(CSc2nc3cccnc3n2Cc2nc(-c3ccccc3F)oc2C)cc1
→ 118, 114
COc1ccc(NC(=O)Cn2c(=O)c(-c3cc(C)ccc3NC(C)=O)nc3ccccc32)c(OC)c1
→ 114, 107
CCOC(=O)C1CCN(C(=O)Cn2nc(C)n3c(cc4cc(C)ccc43)c2=O)CC1
→ 104, 107
CCOC(=O)c1sc2ncn(CC(=O)Nc3ccc(N(C)C)cc3)c(=O)c2c1C
→ 110, 107
CCOC(=O)c1sc(NC(=O)C(C)Sc2nc(-c3ccccc3)cc(C(F)(F)F)n2)c(C(=O)OC)c1C (configuration not stated)
→ 101, 101
Cc1ccc(OC(C)C(=O)Nc2nonc2-c2ccc(Br)cc2)cc1C (configuration not stated)
→ 105, 107
CC(C)CNc1ncnc2c1nnn2C
→ 108, 109
COc1ccc(-c2cc(C(C)=O)c(C)n2CCC(=O)NC2CCCCC2)cc1
→ 102, 102
COc1cc(NC(=O)c2cc(-c3cccc(Cl)c3)on2)c(OC)cc1Cl
→ 107, 105
CCOC(=O)c1cccc(NS(=O)(=O)c2c(C)nc3sc(C)cn3c2=O)c1
→ 110, 107
COc1cccc(CNC(=O)c2nn(C)c3c2CSc2ccccc2-3)c1
→ 112, 107
CCCCNC(=O)CSc1nc(-c2ccc(OC)cc2)cc(C(F)(F)F)n1
→ 109, 105
COc1ccc(-n2nc(C(=O)Nc3cccc(C)n3)c3c4ccccc4n(C)c3c2=O)cc1Cl
→ 112, 109
CCOc1ccc(NC(=O)c2cc(=O)c3ccc(C)c(C)c3o2)cc1
→ 108, 105
CC(Oc1ccccc1)C(=O)Nc1ccc(C(=O)OCc2cc(=O)n3ccsc3n2)cc1 (configuration not stated)
→ 110, 102
CCC(=O)N1CCc2cc(CNC(=O)Nc3ccccc3Cl)ccc21
→ 110, 107
CCOC(=O)c1ccc(NC(=O)c2c(NC(C)=O)sc3c2CCC(C)C3)cc1 (configuration not stated)
→ 105, 104
Cc1ccc2c(CN3CCN(C(=O)c4ccc(Br)cc4)CC3)cc(=O)oc2c1
→ 106, 107
CCCn1c(=N)c(C(=O)NC2CCCC2)cc2c(=O)n3cccc(C)c3nc21
→ 108, 108
Cc1ccc2c(c1)N(CC(=O)NCc1cccc(Cl)c1)C(=O)c1cccnc1O2
→ 107, 101
Cc1ccc(NC(=O)c2ccco2)c(OCc2cc(=O)n3cc(C)sc3n2)c1
→ 111, 108
Cc1ccc(N(Cc2cccs2)C(=O)COc2cccc(C)c2)cc1
→ 110, 113
CC1CCc2c(sc3nc(-c4cc5cc(Br)ccc5oc4=O)[nH]c(=O)c23)C1 (configuration not stated)
→ 117, 114
CCOC(=O)c1oc2ccc(S(=O)(=O)n3nc(-c4cc(OC)c(OC)c(OC)c4)cc3N)cc2c1C
→ 103, 103
O=C1CN(C(=O)COc2ccc(Cl)cc2Cl)C(c2ccc(F)cc2)c2cc(F)ccc2N1 (configuration not stated)
→ 105, 102
Cc1ccc(N2CC(NC(=O)c3ccccc3Br)CC2=O)cc1 (configuration not stated)
→ 107, 110
Cc1ccc(-c2nnc3c4ccccc4c(C)nn23)cc1NC(=O)c1ccccc1Cl
→ 105, 105
CC(=O)N1CCc2nc3sc(C(=O)c4ccc(F)cc4)c(N)c3c(C(F)(F)F)c2C1
→ 233, 80
CC(=O)c1ccc(N2CCN(C(=O)Nc3ccc(C(C)C)cc3)CC2)cc1
→ 110, 113
Cc1cccc(N2CCN(C(=O)CSCc3ccc(F)cc3)CC2)c1C
→ 107, 109
CCOc1ccccc1C(=O)N1CC(=O)Nc2ccc(C)cc2C1c1ccccc1 (configuration not stated)
→ 108, 109
Cc1ccc2c(=O)cc(C(=O)Nc3c(C(=O)c4ccccc4)oc4ccccc34)oc2c1C
→ 115, 105
COCCNC(=O)CSc1nc(-c2cc(OC)c(OC)c(OC)c2)[nH]c1-c1ccc(Cl)cc1
→ 109, 109
CCN(CC)c1ccc(NC(=O)c2cccn2-c2nnc(N3CCCCC3)s2)c(C)c1
→ 109, 103
COc1ccc(NC(=O)CC2C(=O)N(c3cccc(C)c3)C(=O)N2Cc2cccnc2)cc1 (configuration not stated)
→ 109, 108
O=C(NCc1ccccc1Cl)c1cnc(N2CCCCC2)c2ccccc12
→ 99, 99
Cc1ccccc1N1CC(c2nc3ccccc3n2Cc2ccc(Br)cc2)CC1=O (configuration not stated)
→ 112, 112
Cc1ccc(/C=C/c2onc(C)c2S(=O)(=O)N2CCC(C(=O)Nc3cc(C)ccc3C)CC2)cc1
→ 107, 105
COc1ccc(N(C)C(=O)Cn2cnc3sc(C)c(S(=O)(=O)N4CCN(c5ncccn5)CC4)c3c2=O)cc1
→ 113, 111
CCc1ccc(NC(=O)Nc2nnc(N(C)C3CCCCC3)s2)cc1
→ 109, 112
CCOC(=O)c1c(NC(=O)COc2ccc(OC)cc2)sc(C(=O)N(CC)CC)c1C
→ 103, 103
Cc1ccccc1OCC(=O)Nc1cc(-c2cccc(Br)c2)nn1-c1ccccc1
→ 111, 114
Cc1ccsc1CN(Cc1ccco1)c1cnc(S(C)(=O)=O)nc1C(=O)Nc1ccc(Cl)cc1
→ 107, 109
CCOC(=O)c1noc2ncn(CC(=O)Nc3cccc(C(F)(F)F)c3)c(=O)c12
→ 95, 97
COc1ccc(Cl)cc1C(=O)Nc1sc2c(c1C(=O)OC(C)C)CCCC2
→ 111, 110
CCCCCn1c(=O)[nH]c2cc(C(=O)Nc3ccc(F)c(F)c3)ccc2c1=O
→ 112, 108
COc1ccc(OC)c(CNc2nc3ccc(C)cc3n3nnnc23)c1
→ 116, 106

Further compounds.
Every second line gives: Polio RdRp inh intensity, Polio RdRp inh
CCOc1ccc(C(=O)NCc2ccc3c(c2)CCN3C(=O)c2ccc(C)cc2)cc1OCC
→ 108, 104
CCOC(=O)N1CCN(Cc2nc3cc(NC(=O)c4ccccc4Cl)ccc3n2C(C)C)CC1
→ 110, 105
CCC(Sc1nc2c(sc3ccccc32)c(=O)n1CCc1ccc(OC)c(OC)c1)C(=O)N(CC)CC (configuration not stated)
→ 104, 105
O=C(CCCn1c(=O)c2sccc2n(Cc2ccc(Cl)cc2)c1=O)NCc1ccc2c(c1)OCO2
→ 114, 110
Cc1ccc(CNC(=O)CN2C(=O)C3(SCC(=O)N3c3ccc(F)c(F)c3)c3ccccc32)cc1 (configuration not stated)
→ 103, 105
COc1ccc(NC(=O)Cn2nc(C)c3c(C)n(-c4ccccc4)nc3c2=O)cc1OC
→ 114, 113
COc1ccc(N2CCN(c3cc(C)nc4nncn34)CC2)cc1
→ 109, 103
CC(=O)Nc1cccc(NC(=O)CSc2cn(CC(=O)N3CCCC3)c3ccccc23)c1
→ 118, 119
Cc1c(C)n(Cc2ccc(F)cc2)c2ccc(C(=O)Nc3ccc(Cl)cc3)cc12
→ 110, 107
COc1ccc(Cn2c(C(=O)O)c(CNC3CCCC3)c3ccc(OC)cc32)cc1
→ 106, 101
O=C(COc1ccccc1)Nc1ccc(OCc2cc(=O)n3ccsc3n2)cc1
→ 116, 112
Cc1ccc2nc(N3CCC(C(=O)NCc4ccc(F)cc4)CC3)[nH]c2c1
→ 108, 106
Cc1nc(-n2nc(C)c(CCC(C)C)c2C)sc1C(=O)Nc1cccc(Cl)c1
→ 94, 110
COc1ccc(CCNC(=O)Cn2c(=O)c3cccn3c3ccccc32)cc1OC
→ 100, 110
CN(C)c1ccc(CNC(=O)CCC(=O)N2Cc3ccccc3Oc3ncccc32)cc1
→ 107, 106
CC(=O)c1cccc(NC(=O)C2CCN(C(=O)c3cnn(-c4ccccc4)c3-n3cccc3)CC2)c1
→ 107, 112
CCOC(=O)c1noc2ncn(Cc3ccc([N+](=O)[O-])cc3)c(=O)c12
→ 107, 109
CC(C)Oc1ccc(CNC(=O)c2ccc(CS(=O)c3cccc(Cl)c3)o2)cc1 (configuration not stated)
→ 105, 103
O=C(CCC1CCCC1)N1CCc2c([nH]c3ccccc23)C1c1ccc(F)cc1 (configuration not stated)
→ 112, 109
Cc1ccc(C(C)C)c(OCC(=O)Nc2ccc(C(=O)OC3CCCCC3)cc2)c1
→ 99, 101
Cc1ccc(C)c(Cn2nnc(C(=O)NCc3ccccc3)c2N)c1
→ 113, 103
O=C(NCc1cccnc1)c1nn(-c2ccc(F)cc2)nc1CO
→ 97, 107
COc1ccc(OC)c2sc(NC(=O)c3ccc(S(=O)(=O)N4CCCC4)cc3)nc12
→ 105, 111
Cc1cccc(OCC(=O)OCc2cc(=O)n3nc(-c4cccs4)sc3n2)c1
→ 111, 106
CC(Sc1cn(CCNC(=O)c2ccccc2F)c2ccccc12)c1ccccc1 (configuration not stated)
→ 111, 106
CCn1cc(S(=O)(=O)c2ccc(C)cc2C)c(=O)c2cc(F)c(N3CCCCC3)cc21
→ 113, 109
Cc1cc(C)cc(NC(=O)CSCn2nnc3c(=O)[nH]c(Cc4ccc(F)cc4)nc32)c1
→ 104, 105
CN(Cc1ccccc1)S(=O)(=O)c1ccc(F)c(C(=O)Nc2ccccc2C(F)(F)F)c1
→ 113, 112
CCN(CC)c1ccc(NC(=O)C2CCN(S(=O)(=O)c3c(C)noc3/C=C/c3ccccc3F)CC2)c(C)c1
→ 97, 104
Cc1ccc2nc(-c3ccc(NC(=O)COc4ccc(Cl)c(C)c4)cc3)sc2c1
→ 104, 101
Cc1cc(C)cc(OCC(=O)NCC2(N(C)C)CCCCC2)c1
→ 92, 98
COc1ccc(NC(=O)C2CCCN(c3cnccn3)C2)c(OC)c1 (configuration not stated)
→ 101, 109
CCC(O)c1nc2ccccc2n1CCOc1cc(C)cc(C)c1 (configuration not stated)
→ 93, 104
COc1ccc(S(=O)(=O)N2CCC(C(=O)NC(C)c3ccccc3)CC2)cc1 (configuration not stated)
→ 111, 110
CCOC(=O)c1c(C)oc2nc(C)nc(NCCCN3CCN(c4ccccc4OC)CC3)c12
→ 102, 100
CC(=O)N1CCOc2cc(S(=O)(=O)Nc3c(C)cccc3C(C)C)c(Cl)cc21
→ 110, 103
Cc1c(NC(=O)c2ccc(N3CCC(C)CC3)c([N+](=O)[O-])c2)cccc1-c1nc2ccccc2o1
→ 103, 103
CCc1ccc(C(=O)c2cn(CC(=O)Nc3ccc4c(c3)OCO4)c3cc(OC)c(OC)cc3c2=O)cc1
→ 107, 108
CCOc1ccc2nc(N(Cc3cccnc3)C(=O)c3cccs3)sc2c1
→ 111, 107
Cc1sc2ncn(CC(=O)N(C)c3ccc(Br)cc3)c(=O)c2c1S(=O)(=O)N1CCC(C)CC1
→ 104, 99
COC(=O)c1cc(NC(=O)CC2C(=O)OCCN2Cc2ccccc2)cc(C(=O)OC)c1 (configuration not stated)
→ 100, 102
Cn1c(C(=O)N2CCC(C(=O)NCCc3ccc(S(N)(=O)=O)cc3)CC2)cc2sccc21
→ 103, 102
CC(=O)c1cccc(NC(=O)c2nc3ccccc3nc2N2CCCCC2)c1
→ 105, 107
Cc1ccc(C2=NN(CC(=O)NCCC(C)C)C(=O)CC2)cc1
→ 108, 107
O=C(Cn1c(=O)ccc2cc(S(=O)(=O)N3CCCC3)ccc21)NCc1ccc(F)cc1
→ 104, 110
COC(=O)c1cc(NS(=O)(=O)c2cc(Br)cc3c2N(C(C)=O)CC3)cc(C(=O)OC)c1
→ 93, 103
CCc1ccc(NC(=O)CSc2nc(=O)n(Cc3ccco3)c3c2CCC3)cc1
→ 112, 115
CN(C(=O)Cn1nnc(-c2ccc(S(C)(=O)=O)cc2)n1)c1ccccc1
→ 103, 101
O=C(NCCc1ccc(Cl)cc1)c1ccc(CS(=O)(=O)Cc2ccc(Cl)cc2)o1
→ 110, 106

Complete entries from above. Order of values: Polio RdRp inh intensity, Polio RdRp inh
Record of `O=C(NCCc1ccc(Cl)cc1)c1ccc(CS(=O)(=O)Cc2ccc(Cl)cc2)o1` : 110, 106
Record of `COC(=O)c1cc(NS(=O)(=O)c2cc(Br)cc3c2N(C(C)=O)CC3)cc(C(=O)OC)c1` : 93, 103
Record of `O=C(Cn1c(=O)ccc2cc(S(=O)(=O)N3CCCC3)ccc21)NCc1ccc(F)cc1` : 104, 110
Record of `CCc1ccc(C(=O)c2cn(CC(=O)Nc3ccc4c(c3)OCO4)c3cc(OC)c(OC)cc3c2=O)cc1` : 107, 108
Record of `Cc1c(NC(=O)c2ccc(N3CCC(C)CC3)c([N+](=O)[O-])c2)cccc1-c1nc2ccccc2o1` : 103, 103

A portion of the library. The share of hits here may be higher or lower than overall.
